HPGD inh: HPGD (human) dehydrogenase inhibition; P15428; purified HPGD, NADH fluorescence kinetic, PGE2 substrate; Potency, µM, inactives show top-dose activity change, negative = inhibition, actives largely listed as inhibitors; actives 4.3% (n = 150,000); active = well fitted inhibition curve with a large enough effect (not every such curve was filed as active); inconclusive = small, poorly fitted or top-dose-only effect, or another doubt; inactive = no such curve, though single readings can be large or run the other way;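 also: top concentration of the series not given in the record; plate controls included wells without enzyme; inactives centre near -10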
Target sequence (P15428 whole entry, looked up): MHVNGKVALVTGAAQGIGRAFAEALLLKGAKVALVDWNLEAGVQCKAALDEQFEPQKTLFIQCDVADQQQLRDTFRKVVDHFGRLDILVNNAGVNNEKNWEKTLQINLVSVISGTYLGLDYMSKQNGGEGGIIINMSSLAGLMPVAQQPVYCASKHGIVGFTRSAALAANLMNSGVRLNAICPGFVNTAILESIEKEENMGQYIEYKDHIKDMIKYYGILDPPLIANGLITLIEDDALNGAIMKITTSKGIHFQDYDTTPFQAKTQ
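NADH formation kinetics: reaction with 30 uM PGE2 and 1 mM NAD+ (final), 20 nM enzyme, Tris-HCl pH 8 with Tween 20, after 15 min compound preincubation at room temperature. Fluorescence change, last versus first of five reads.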
Starred values were filed as active, the others as inactive; ? = inconclusive; & = joins results of further samples. % is scaled to controls: 0 for no effect and ±100 for the full control effect; potency is read from the fitted curve at half-maximal effect. The list is partial. The share of hits here may be higher or lower than overall.

SMILES	HPGD inh
Cc1nc(Nc2ccc3c(c2)OCCO3)c2oc3ccccc3c2n1	?
COc1ccc(CCNC(=O)/C(=C/c2cccnc2)NC(=O)c2ccccc2)cc1	-15%
CCC(c1nnnn1C(C)(C)C)N1CCN(C2CCCC2)CC1 (centres undefined)	-6%
COCc1cc(C)nc2sc(C(=O)N3CCCCC3)c(N)c12	0.25µM*
COc1ccc(CN(Cc2cc3cc(OC)c(OC)cc3[nH]c2=O)C(=O)NC2CCCCC2)cc1	?
Cc1cccc(NC(=S)N2N=CCC2c2ccccc2)c1 (centres undefined)	-9%
O=C(NC(=S)Nc1ccc(N2CCCCC2)cc1)c1ccco1	18µM*
Cc1cccc(C)c1OCc1nc2ccccc2c(=O)n1/N=C/c1ccc(OCC(=O)O)cc1	-21%
Cc1ccc(CN2CCN(Cc3ccccc3C(F)(F)F)CC2)cc1	1%
Cc1ccccc1CN1CCN(C/C=C/c2ccccc2)CC1	-14%
CC(=O)NN=C1CCC(c2ccccc2)CC1 (centres undefined)	-14%
COc1ccc(OCCSc2nc(N)cc(N)n2)cc1	25µM*
COc1cc(C(=O)N2CCCC(c3nc(-c4cccs4)no3)C2)cc(OC)c1OC (centres undefined)	-11%
Cc1cc2ccccc2nc1Br	-7%
CCOC(=O)C(Cc1ccccc1)NC(=O)CCc1c(C)nc2nc(C)nn2c1C (centres undefined)	1%
CCn1c(SCC(=O)NC(C)c2ccccc2)nc2ccccc21 (centres undefined)	-11%
Cc1ccc(CN2CC34C=CC(O3)C(C(=O)NCc3ccco3)C4C2=O)cc1 (centres undefined)	1%
C/C(=N\NC(=O)CC1N=C(Cc2ccccc2)NNC1=O)c1ccc(C)cc1 (centres undefined)	-5%
CCn1cc(C(=O)O)c(=O)c2cc(F)c(N3CCN(C)CC3)cc21	?
CC1CN(S(=O)(=O)c2ccc(Cl)c(S(=O)(=O)N3CC(C)OC(C)C3)c2)CC(C)O1 (centres undefined)	-3%
Cn1ccnc1SCc1cn2ccccc2n1	-6%
COc1cc(/C=N/n2nnnc2N)ccc1OCc1c(C)no[n+]1[O-]	-24%
CCN(CC)S(=O)(=O)c1cc(F)ccc1OC	-9%
O=C(c1cnn2c(C(F)F)cc(-c3ccccc3)nc12)N1CCOCC1	?
O=c1nc(-c2ccccc2)c2ccccc2[nH]1	?
C=C(C)C1Cc2c(ccc(C(=O)O)c2O)O1 (centres undefined)	0%
c1ccc2sc(SSc3nc4ccccc4s3)nc2c1	10µM*
COc1ccc(-c2cc(N3C(=O)Nc4ccccc4N3O)n[nH]2)cc1	-17%
Cc1ccc(NC(=O)CSc2nc3ccccc3c3nc4ccccc4n23)cc1	-15%
O=C1N2CCSC2=NC1(NS(=O)(=O)c1ccccc1)C(F)(F)F (centres undefined)	-1%
CCOc1ccc(Nc2nc(NCCN3CCOCC3)nc(OC)n2)cc1	?
COc1cc(O)oc1C=Nc1ccc(Cl)cc1	-13%
Cc1ccc(S(=O)(=O)Nc2nonc2C)cc1	3%
CCn1c(C)cc(/C=C2/NC(=O)N(Cc3ccccc3F)C2=O)c1C	?
CO/N=C(/CS(=O)(=O)c1ccc(C)cc1)c1ccc(OC)cc1	-14%
Cc1ccccc1OCC(=O)Nc1sc(C(=O)Nc2cccc(C)c2C)c(C)c1C#N	?
Cc1cc(C(=O)OCC(=O)N2CC(=O)Nc3ccccc32)c(C)n1-c1ccc(F)cc1	-24%
COc1cccc2c3c(c(C)nc12)CC(CO)O3 (centres undefined)	?
COC(=O)C(O)(CC(=O)Nc1cccc(SC)c1)C(F)(F)F (centres undefined)	1%
CCS(=O)(=O)N1CCCC(C(=O)N2CCc3ccccc3C2)C1 (centres undefined)	0%
CN1CCN(S(=O)(=O)c2ccc3c(c2)NC(=O)C2CCCN32)CC1 (centres undefined)	-8%
CCOC(=O)C1=C(CSc2n[nH]c(N)n2)NC(=O)NC1C (centres undefined)	-4%
Cc1cc(NC(=O)CCC2COc3ccccc3O2)no1 (centres undefined)	-13%
CC(C)(O)C#Cc1ccc(C(=O)N2CCN(C(=O)c3ccco3)CC2)cc1	-6%
CCN(CC)S(=O)(=O)c1ccc(N2CCCC2)c(NS(=O)(=O)c2ccc(OC)cc2)c1	-6%
Cc1cc(=O)oc(C)c1C(=O)NCC1CCCO1 (centres undefined)	-8%
CC(=O)N1CCC[C@@]2(CCN(C(=O)Nc3ccccc3)C2)C1	-9%
CC(C)(C)c1nnc2sc(SCCN3C(=O)c4ccccc4C3=O)nn2c1=O	-14%
Nc1nc2c(nc(Sc3ccc(Cl)cc3)n2C2OC(CO)C(O)C2O)c(=O)[nH]1 (centres undefined)	-15%
CCOC(=O)c1cccnc1SCC(=O)NC(C)CC (centres undefined)	-20%
FC(F)(F)c1cccc(Cn2nnnc2-c2cccc(C(F)(F)F)c2)c1	-13%
Cc1ccc(C(=O)NNC(=O)OC(C)(C)C)c(Cl)c1	-14%
Cc1occc1-c1nnc(SCC(=O)NCCc2ccccc2)n1C(C)c1ccccc1 (centres undefined)	?
O=C(NCc1ccccc1)N(Cc1nc2ccccc2c(=O)[nH]1)C1CCCC1	?
COc1ccc(/C=N/NC(=O)CC(=O)NCc2cccnc2)c(OC)c1	-10%
Cc1cccn2c(/C=N/OCc3cccc(F)c3)c(-c3ccc(Cl)cc3)nc12	?
Cc1ccc(OCc2ccc(C(=O)Nc3nccs3)o2)cc1C	-19%
CCN1CCN(C(c2cccs2)C(C)NC(=O)c2ccccc2)CC1 (centres undefined)	-6%
O=c1oc(/C=C/c2ccco2)nc2sc3c(c12)CCC3	-5%
CC(C)CC1NC(=S)N(C2CCCCC2)C1=O (centres undefined)	-2%

Given with values ahead of the structure: part of the list above
| HPGD inh | smiles |
| --- | --- |
| -7% | Cc1cc2ccccc2nc1Br |
| 0.25µM* | COCc1cc(C)nc2sc(C(=O)N3CCCCC3)c(N)c12 |
| -6% | CCC(c1nnnn1C(C)(C)C)N1CCN(C2CCCC2)CC1 (centres undefined) |

The list goes on:
SMILES	HPGD inh
COc1ccc(Cc2nc(N)nc(N)n2)cc1	-9%
Cc1csc2ncc(C(=O)N3c4ccccc4CC3C)c(=O)n12 (centres undefined)	-19%
Cc1ccc(/C=N/NC(=O)Nc2ccccc2)o1	-3%
Cc1ccc(/C=N/n2c(C)n[nH]c2=S)o1	-6%
CCNC(=O)Cn1c(=O)c(=O)n(Cc2ccccc2)c2ccc(Cl)cc21	?
O=C1CC(c2ccco2)CC2=C1C1c3ccccc3C(=O)N1c1ccccc1N2 (centres undefined)	-9%
O=C(CCCCCN1C(=O)c2ccccc2C1=O)Nc1ccccc1	?
O=C(NCC(c1cccnc1)N1CCOCC1)c1ccc2c(c1)OCO2 (centres undefined)	-13%
O=C(NCCCN1CCOCC1)[C@@H]1CSC2c3ccccc3C(=O)N21 (some centres undefined)	-10%
O=C1CC(c2ccccc2)Cc2nc(NCc3ccco3)ncc21 (centres undefined)	-12%
O=C(CCS(=O)(=O)Cc1ccccc1)N1CCN(c2ccccc2)CC1	-2%
CCOC(=O)c1c(C2COc3ccccc3O2)csc1NC(=O)c1ccco1 (centres undefined)	?
COC(=O)Nc1ccc(S(=O)(=O)N2c3ccccc3CCC2C)cc1 (centres undefined)	-9%
O=C(CSc1nnnn1-c1ccccc1)N1CCCc2ccccc21	-7%
O=C(CSc1nnc(-c2ccncc2)n1Cc1ccco1)Nc1nc(-c2ccccc2)cs1	-2%
Cc1ccc(C(=O)O/N=C(\N)c2cccc([N+](=O)[O-])c2)cc1	-22%
COC(=O)c1c(CSc2cccc(C)c2)noc1C(=O)NCc1ccco1	11µM*
CC(C)c1nnc(NC(=O)C2c3ccccc3Oc3ccccc32)s1	-7%
O=C(OCC(=O)N1CCCCC1)c1cc(NS(=O)(=O)c2ccc(Cl)c([N+](=O)[O-])c2)ccc1O	8.9µM*
CCOc1ccc(/C=N/NC(=O)C2(O)c3ccccc3-c3ccccc32)cc1	-5%

Three of the compounds above, with each value named:
> Cc1ccc(/C=N/NC(=O)Nc2ccccc2)o1
- HPGD inh = -3%
> Cc1ccc(/C=N/n2c(C)n[nH]c2=S)o1
- HPGD inh = -6%
> CCNC(=O)Cn1c(=O)c(=O)n(Cc2ccccc2)c2ccc(Cl)cc21
- HPGD inh = ?

Additional records follow.
SMILES	HPGD inh
CC(C)COc1ccc(C(=O)N(Cc2ccco2)C2CCS(=O)(=O)C2)cc1 (centres undefined)	-11%
Brc1cccc(-c2nnc3sc(CNC4CCCC4)cn23)c1	-16%
CC1C(=O)CC(c2ccco2)NC1c1ccco1 (centres undefined)	?
COc1ccccc1-c1n[nH]c(=S)o1	-25%
O=C1c2ccccc2C(=O)C1c1ccccc1	-7%&-28%&-2%
CCCCN(C)CC(O)Cn1cc(/C=C/C(=O)c2cccs2)c2ccccc21 (centres undefined)	-28%
Cc1cc(=O)[nH]c(/N=C(\N)Nc2cccc3ccccc23)n1	-7%
CCOc1ccc2nc(NC(=O)C3CCN(c4cnccn4)CC3)sc2c1	?
O=C(c1cc2cc(Cl)ccc2oc1=O)N1CCOCC1	-24%
Cc1cc(C)c2c(N)c(C(=O)NCC3CCCCC3)sc2n1	?
COC(=O)c1sc(S(=O)(=O)NCc2ccccc2)c(C(=O)OC)c1C	-4%
O=C(NCCCn1ccnc1)C1c2ccccc2Oc2ccccc21	-3%
CCN(CC)Cc1csc(C(N)=O)c1	?
CCOc1ccccc1NC(=O)CCc1ccc(C)o1	-1%
CCCn1c(N2CCC(Cc3ccccc3)CC2)nc2c1c(=O)[nH]c(=O)n2C	-8%
CC1Cc2ccccc2N1CC(=O)Nc1ccc2c(c1)OC(F)(F)O2 (centres undefined)	-17%
Cc1ccc(Cn2c(SCCN3CCCCC3)nc3c2c(=O)n(C)c(=O)n3C)cc1	-17%
COc1ccc(CN(CCCN2CCOCC2)C(=O)Nc2ccccc2)cc1OC	-1%
CCc1ccc(NC(=O)C(=O)NNC(=O)COc2cccc(OC)c2)cc1	-1%
COc1cc(C2c3c(oc4cc(C)c(C)cc4c3=O)C(=O)N2c2cc(C)ccn2)ccc1O (centres undefined)	-1%
O=C(COC(=O)c1ccc(S(=O)(=O)NCc2ccco2)cc1)c1ccccc1	-5%
COCC(=O)N(Cc1cc2ccccc2[nH]c1=O)c1ccccc1OC	-15%
COc1ccc(C(=O)c2oc3ccc(OC)cc3c2N)cc1	-8%
CCOc1ccccc1NC(=S)N1CCC(c2nc3ccccc3o2)CC1	-6%
COC(=O)c1ccc2c(=O)n(Cc3ccc(C(=O)NC4CCCC4)cc3)c(=S)[nH]c2c1	?
COc1cccc(/C=N/c2oc(-c3ccccc3)cc2C#N)c1O	?
COC(=O)c1c(-c2cc(OC)c(OC)c(OC)c2)c2ccnc(OCc3ncccn3)c2c(=O)n1Cc1ccnc(C)c1	-26%&-12%
COC(=O)c1ccccc1NC(=O)C(CCS(C)(=O)=O)NC(C)=O (centres undefined)	-20%
C/C(N)=C(/C#N)C(=O)CSc1nc2cc(Cl)ccc2s1	-15%
O=C(c1ccc(Cn2cc(Br)cn2)o1)N1N=C(C(F)F)CC1(O)C(F)F (centres undefined)	-8%
Cc1c(-c2cccs2)[n+](=O)c2c(n1[O-])CCCC2	-5%
O=C(NCCc1ccccc1)c1ccc([N+](=O)[O-])cc1	-10%
O=C(/C=C/c1ccccc1Cl)N1CCN(c2ncccn2)CC1	-6%
COc1ccc(CNC(=O)c2c(O)c3cccc4c3n(c2=O)CCC4)cc1OC	-17%
COc1cc(OC)cc(C(=O)OCc2cc3ccccc3[nH]c2=O)c1	-23%
Cc1ccc(C2CC(c3ccco3)n3nc(N)nc3N2)cc1 (centres undefined)	-10%
Nc1ncn(C(=O)c2ccco2)n1	-20%
Cc1cc(C)n(-c2nc3ccccc3nc2N2CCOCC2)n1	-16%
CC(C)(CO)NCc1cccc(OCc2ccc(Cl)cc2)c1	-4%
CC(N=c1ccccn1C(=O)Nc1cccc(C(F)(F)F)c1)c1ccco1 (centres undefined)	0%

Shown with bars between the fields: entries from further up.
SMILES | HPGD inh
Cc1c(-c2cccs2)[n+](=O)c2c(n1[O-])CCCC2 | -5%
O=C(NCCc1ccccc1)c1ccc([N+](=O)[O-])cc1 | -10%
O=C(/C=C/c1ccccc1Cl)N1CCN(c2ncccn2)CC1 | -6%

Four entries from above, with each value named:
> COc1ccc(CNC(=O)c2c(O)c3cccc4c3n(c2=O)CCC4)cc1OC
  HPGD inh: -17%

> COc1cc(OC)cc(C(=O)OCc2cc3ccccc3[nH]c2=O)c1
  HPGD inh: -23%

> O=C(c1ccc(Cn2cc(Br)cn2)o1)N1N=C(C(F)F)CC1(O)C(F)F (centres undefined)
  HPGD inh: -8%

> O=C(COC(=O)c1ccc(S(=O)(=O)NCc2ccco2)cc1)c1ccccc1
  HPGD inh: -5%

Next section.
SMILES	HPGD inh
COCCSc1ccccc1C(=O)Nc1nncs1	-7%
CC(C)(C)c1ccc(OCC(O)CSc2ncn[nH]2)cc1 (centres undefined)	-7%
CCOC(=O)c1c(-c2cccs2)csc1NC(=O)CCCC(=O)O	-25%
CCOC(=O)c1csc(NC(=O)COc2ccc(Cl)cc2Cl)n1	-13%
O=C(c1ccc(Cl)cc1)c1cnc(Nc2ccccc2Cl)s1	-23%
O=C(NCc1ccccc1)c1ccc(S(=O)(=O)N2CCCc3ccccc32)cc1	-16%
O=C(Nc1nc2c(s1)CCCC2)c1cccnc1	-10%
CC1CN(Cc2cc(=O)n3ccsc3n2)CC(C)O1 (centres undefined)	-20%
COc1cc(/C(C)=N/NC(=S)NC(C)C)cc(OC)c1OC	-8%
CCn1c(SCC(=O)Nc2ccc(N3CCOCC3)cc2)nnc1-c1ccc(OC)cc1	2%

Source: PubChem BioAssay
